Screens deposited in PubChem BioAssay by several laboratories.
PrP UTR inh: inhibition of PrP 5' UTR reporter expression. cell-based PrP 5' UTR mRNA reporter, plate reader. inhibition, % (concentration not given with the values). 340,000 tested, 0.35% active. AID 488862;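 active = every replicate at 50% or more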;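 also: 0 = median of the neutral control wells; tested in H4 reporter cells; numbers are from one replicate; inactives centre near -14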
Sa ugtP lethal: kills S. aureus RN4220 lacking UgtP. S. aureus RN4220 ugtP deletion, OD600 growth, 16 h; some inactives read as strong as hits. 330,000 tested, 0.54% active. growth inhibition, % (concentration not given with the values). AID 1259309;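 active = z-score under -3 and OD600 up to 0.15 on both plates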;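 also: plate controls were untreated wells for no effect and antibiotic for full effect; wells of about 80 µL received 100 nL stock; the first replicate is given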
BJeLR lethal: kills HRASV12-expressing BJeLR cells | BJeLR (HRASV12) viability, CellTiter-Glo ATP luminescence, 48 h; reference of the scale not given here | inhibition, % (concentration not given with the values) | 300,000 tested, 0.17% active | AID 1554;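 active = replicate mean above 50%; inconclusive = above 50% but judged a plate artefact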;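 also: 50 nL library stock added to about 25 µL; numbers are from one replicate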
Autofluor counter: compound fluorescence in toxin protease inhibitor counterscreen; compound autofluorescence counterscreen, microsphere flow cytometry; active compounds read high; fluorescence intensity (no concentration beside the values); 360,000 tested, 3.1% active; AID 624483;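 active = at least 3 SD above the mean of all compounds, about 16000 in these data; inconclusive = too few beads counted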;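 also: 100 nL of 1 mM stock went into each well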
Mtb hypoxia inh: reduces hypoxia-regulated biosensor signal in M. tuberculosis; AID 1159583; M. tuberculosis hypoxia-regulated fluorescent reporter, fluorescence; 300,000 tested, 0.1% active; fluorescence inhibition, % (no concentration beside the values);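 active = 35 to 45% if threefold the growth effect, above 45% if 1.5-fold the growth effect; inactive = the rest, general growth blockers included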;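 also: wells of about 50 µL received 100 nL stock; 0% = vehicle wells and 100% = reference inhibitor wells; whole bacteria with a GFP reporter of the hypoxia response; strong numbers were not always called active; many hits fall short of the cut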
Sa RN4220 lethal: kills Staphylococcus aureus RN4220; S. aureus RN4220 growth, OD600, 16 h; inhibition, % (no concentration beside the values); 330,000 tested, 0.33% active;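 active = z-score of -3 or lower and OD600 up to 0.18 on both plates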;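 also: plate controls were untreated cells for no effect and reference antibiotic for full effect; stock transfer was 100 nL into about 80 µL; one replicate is shown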
Mtb hypoxia inh growth: second read-out of Mtb hypoxia inh, no call of its own (marks repeat the call); growth inhibition, %; measured here: M. tuberculosis growth (absorbance);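 0% = vehicle and 100% = reference antibiotic; read after six days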
* hit, by the source's call; u = inconclusive; x = not tested or not shown.

SMILES	PrP UTR inh	Sa ugtP lethal	BJeLR lethal	Autofluor counter	Mtb hypoxia inh	Mtb hypoxia inh growth	Sa RN4220 lethal
COC(=O)c1c(NC(=O)COC(=O)CCNS(=O)(=O)c2ccccc2)sc(C)c1C	11	9	3	5549	5	7	4.0
Cc1cccc(C)c1NC(=O)CCN1C(=O)C2C3CCC(C3)C2C1=O (stereo not given)	-9	2	-3	24501*	6	8	3.7
Cc1cc(C)c(OCCOCCN2CCN(C)CC2)c(Cl)c1	-18	17	-5	3714	10	15	-1.0
Cc1nc2c(C#N)cnn2c2c1CCN(Cc1ccccc1)N2C	1	12	0	4060	5	-6	0.9
COC(=O)CSc1nnc(-c2ccc(S(=O)(=O)N3CCCCC3)cc2)o1	-11	1	-2	9120	0	3	3.3
CCOc1ccccc1N(CC(=O)NN=Cc1cc(Br)ccc1OC)S(C)(=O)=O	x	3	x	x	3	0	7.5
CCc1ccc(C(C(=O)NC2CCCCC2)N(C(=O)c2csnn2)C2CC2)cc1 (stereo not given)	0	9	-10	6126	1	5	-1.1
Cc1cccc(N(C(=O)Cc2cccs2)C(C(=O)NCc2ccco2)c2ccncc2)c1 (stereo not given)	-15	-1	3	3925	6	-2	5.7
COc1ccc(N2CC(NC(=O)c3ccc4ccccc4c3)CC2=O)cc1OC (stereo not given)	0	3	-3	5509	2	2	0.3
Cc1cccc(Oc2ncnc3onc(C)c23)c1	-39	-1	-3	2659	x	x	2.2
CC1(C)C2CC[C@]3(C)C(CC=C4[C@@H]5C[C@](C)(CO)CC[C@]5(C(=O)O)CC[C@]43C)[C@@]2(C)CC[C@@H]1O (stereo not given in full)	x	2	-12	4857	x	x	26
CC(C)CCn1c(N2CCN(c3cccc(Cl)c3)CC2)nc2c1c(=O)[nH]c(=O)n2C	2	4	-1	4348	x	x	5.7
Oc1c(Br)cccc1/C=N/Nc1c(F)c(F)c(F)c(F)c1F	-13	x	9	2012	x	x	x
CCOC(=O)CNC(=O)C1c2ccccc2Oc2ccccc21	-7	-2	9	4105	-2	5	-2.0
COc1ccccc1N1CCN(C2CCCN(Cc3c(F)cccc3F)C2)CC1 (stereo not given)	-18	9	-5	3836	12	8	2.3
CC(=O)C(N=Nc1ccccc1)(Sc1nnc(-c2ccccc2)n1-c1ccccc1)C(=O)Nc1ccccc1 (stereo not given)	-4	9	-5	19172*	-9	4	-0.3
OC(COc1ccc2cc(Br)ccc2c1)Cn1ccnc1 (stereo not given)	16	-6	3	3614	-20	8	-1.9
COc1cc(C2CC(c3ccccc3)=NN2c2ccccc2)ccc1OCC(=O)O (stereo not given)	-10	1	-4	5183	3	-1	13
COc1ccc(C(=O)N/C(=C\c2ccccc2)C(=O)NC(CCSC)C(=O)O)cc1 (stereo not given)	-10	14	0	4878	1	0	3.0
COc1ccc(C2C=CCN(S(=O)(=O)c3ccc(C)cc3)C(Cc3ccccc3)C(=O)N2Cc2ccc(F)cc2)cc1 (stereo not given)	x	6	x	x	2	9	10
O=C1C(O)=C(O)C(=O)c2ccccc21	0	2	x	4180	x	x	-2.1
Cc1ccc(-c2cc(C(=O)Nc3ccc(S(=O)(=O)N4CC(C)OC(C)C4)cc3)[nH]n2)c(O)c1 (stereo not given)	-15	-6	5	6389	8	1	7.5
NC(=O)NC(=O)C(Nc1ccc(N2CCCCC2)cc1)c1ccccc1 (stereo not given)	-27	10	-9	3804	7	8	1.5
O=C(CS(=O)(=O)Cc1ccccc1)NCc1ccccc1Cl	9	6	7	4165	7	3	0.5
CCN(CC(=O)Nc1c(F)cccc1F)C(=O)CNC(=O)c1ccc2ccccc2c1	-17	0	x	8943	1	-5	3.3
Cc1sc2nc(SCC(=O)NCc3cccs3)[nH]c(=O)c2c1C	-47	0	-3	9505	-2	2	6.5
COc1ccccc1NC(=O)c1cc(S(=O)(=O)N2CCc3ccccc32)ccc1F	-13	3	13	5319	-7	-6	-1.0
CNC(=O)OCc1cccc(COC(=O)NC)n1	-14	4	-2	2620	1	15	4.1
CCOC(=O)Nc1ccc(S(=O)(=O)Nc2cc(C)on2)cc1	-31	-6	-5	9103	18	20	0.2
CCCCC(=O)NN=Cc1cc([N+](=O)[O-])ccc1N1CCOCC1	x	3	x	x	6	4	5.7

Seven compounds out of the list, arranged by heavy-atom count, largest number first:
SMILES	PrP UTR inh	Sa ugtP lethal	BJeLR lethal	Autofluor counter	Mtb hypoxia inh	Mtb hypoxia inh growth	Sa RN4220 lethal
Cc1ccc(-c2cc(C(=O)Nc3ccc(S(=O)(=O)N4CC(C)OC(C)C4)cc3)[nH]n2)c(O)c1 (stereo not given)	-15	-6	5	6389	8	1	7.5
CCN(CC(=O)Nc1c(F)cccc1F)C(=O)CNC(=O)c1ccc2ccccc2c1	-17	0	x	8943	1	-5	3.3
COc1ccccc1NC(=O)c1cc(S(=O)(=O)N2CCc3ccccc32)ccc1F	-13	3	13	5319	-7	-6	-1.0
NC(=O)NC(=O)C(Nc1ccc(N2CCCCC2)cc1)c1ccccc1 (stereo not given)	-27	10	-9	3804	7	8	1.5
CCCCC(=O)NN=Cc1cc([N+](=O)[O-])ccc1N1CCOCC1	x	3	x	x	6	4	5.7
O=C(CS(=O)(=O)Cc1ccccc1)NCc1ccccc1Cl	9	6	7	4165	7	3	0.5
CNC(=O)OCc1cccc(COC(=O)NC)n1	-14	4	-2	2620	1	15	4.1

Remaining list, next part.
SMILES	PrP UTR inh	Sa ugtP lethal	BJeLR lethal	Autofluor counter	Mtb hypoxia inh	Mtb hypoxia inh growth	Sa RN4220 lethal
Cc1onc(-c2ccccc2)c1NC(=O)N(Cc1ccccc1)C(C)C	-3	0	-6	6082	8	1	3.7
COc1cccc(N2CCN(c3nc(-c4ccccc4C)cc(=O)[nH]3)CC2)c1	-3	-5	6	3188	-6	0	-0.2
CC(C)Cc1nn2c(N)c(/C=C3\C=Nc4ccccc43)c(=O)nc2s1	3	x	-5	4670	x	x	x
O=C(COC(=O)c1ccc(Cl)c(S(=O)(=O)N2CCCC2)c1)NC1CCCC1	-12	1	7	2862	14	6	4.6
Fc1cccc(CN2CCC(Cc3ccccc3)CC2)c1	-3	9	12	4079	5	2	1.7
Cc1nnc(N2C(=O)C(O)=C(C(=O)c3ccco3)C2c2ccc(C(C)(C)C)cc2)s1 (stereo not given)	-1	5	2	3438	13	13	-4.4
COc1ccc(CCN2C(=O)CSC2=Nc2ccc(C(C)C)cc2)cc1OC	-18	x	29	5900	x	x	x
CCC(Oc1ccccc1)C(=O)Nc1nc2ccccc2[nH]1 (stereo not given)	-28	4	-2	9542	5	2	3.8
Cc1ccc(NC(=O)C(=O)NCCN2CCN(C(=O)C(c3ccccc3)c3ccccc3)CC2)cc1	0	-4	-5	4646	x	x	-1.6
O=C(Cc1cccc(NC(=O)C2CCN(C(=O)C3CCC3)CC2)c1)Nc1cccc(C(=O)N2CCCC2)c1	-10	-10	x	2997	8	14	2.5
O=C(Cn1ncc2c3ccccc3n(Cc3ccccc3F)c2c1=O)NCCN1CCOCC1	-3	3	4	5859	17	1	0.3
Cc1noc(C)c1C(=O)N1CCCC(Nc2ccc(C(C)C)cc2)C1 (stereo not given)	-25	-6	0	x	-2	-5	-1.4
CN1CCN(C(=O)/C(=C/c2cn(S(=O)(=O)N(C)C)c3ccccc23)NC(=O)c2ccccc2F)CC1	-20	1	0	5318	-7	-2	-0.3
Cc1cccc(C(=O)N2CCN(c3ncnc4c3cnn4-c3ccccc3)CC2)c1	-28	8	-6	2665	x	x	-0.2
O=S(=O)(O)c1cccc2cccc(Nc3ccccc3)c12	-15	5	-6	5849	11	8	5.4
N#Cc1ccccc1OCC(=O)NNC(=O)CCC1CCCC1	-16	2	x	3790	4	7	2.5
O=C(CNC(=O)c1ccccc1)c1ccccc1	-12	4	7	3571	4	1	7.7
O=C(CSc1nc2ccccc2c(=O)[nH]1)Nc1ccc(C(=O)O)cc1	-1	1	-5	u	4	-5	2.2
CC1CCCN(S(=O)(=O)c2ccccc2[N+](=O)[O-])C1 (stereo not given)	-36	-4	4	1728	3	8	-2.2
Cc1cccc(N2C(=O)c3cccc(Oc4ccc(Cl)cc4)c3C2=O)c1	-2	-4	1	2616	-6	-2	2.3
CCN(CC(=O)Nc1ccc2c(c1)OCCO2)C(=O)CCOc1ccccc1	-10	1	x	3844	5	3	1.8
CC(=O)c1ccc(OC(=O)c2ccc(Br)o2)cc1	-1	5	-9	6453	7	5	4.4
COc1ccc(C(=O)C2CCCN(C(=O)c3cccc(Cn4cccn4)c3)C2)cc1F (stereo not given)	-17	-1	-14	7098	-2	3	-1.6
COc1cccc(OC)c1C(=O)NNC(=O)c1cccc(COc2ccc3c(c2)CCC3)c1	-21	-5	5	4724	x	x	6.8
Cc1ccc(C(=O)NCCC(=O)N2CCOCC2)cc1	-57	0	-9	5091	1	1	2.1
COC(=O)c1ccc(NC(=O)c2c(C(=O)Nc3ccccc3)sc3nc(C)cc(=O)n23)cc1	-18	13	x	5087	6	9	7.4
CCCCN(C(=O)NC(=O)Nc1ccccc1OCC)S(C)(=O)=O	-4	2	-14	4127	16	10	3.2
Cc1ccc(NC(=O)C2CCCN2S(=O)(=O)c2ccc(F)cc2)c(C)c1 (stereo not given)	-12	5	2	x	x	x	2.6
NNC(=O)c1[nH]c2ccc(Br)cc2c1-c1ccccc1	-16	-17	1	3987	20	-1	-6.6
CC1=C(C)CC(C(=O)Nc2ccc(C(N)=O)cc2)C(C(=O)O)C1 (stereo not given)	-5	0	-12	9495	x	x	2.7
CN1CCN(S(=O)(=O)c2ccc(Br)s2)CC1	-2	9	6	x	3	11	4.5
CC(Nc1nc(-c2ccc3c(c2)NC(=O)CO3)cs1)c1ccccc1 (stereo not given)	-25	-6	3	3371	2	6	2.9
O=C1CS(=O)(=O)N(Cc2ccccc2F)c2ccc(Br)cc21	-12	1	x	3440	3	8	18
N#C/C(=N\Nc1ccc(F)cc1)C(=N)N1CCCCC1	-98	x	4	8218	x	x	x
C=CCn1c(SCC(=O)Nc2cccnc2Cl)nnc1-c1ccc(C(C)(C)C)cc1	-18	-4	-5	2018	6	5	-2.7
O=C1CC(c2ccco2)CC(O)=C1C=NCCN1CCN(C2CC(=O)N(c3ccccc3)C2=O)CC1 (stereo not given)	-12	-5	-3	3294	15	-2	-13
CCOC(=O)c1c(C)c(C(=O)NCC2CCCO2)c(C)n1CC (stereo not given)	-5	1	-5	10685	4	11	1.9
O=C(Nc1cccc2c1CCCC2)C1CCN(C(=O)NC2CCCCC2)CC1	0	0	5	5952	1	5	-1.2
O=C(c1ccccc1Cl)N1CCC(N2CCC(C(=O)N3CCCC3)CC2)CC1	-8	-2	12	4497	-7	-9	-1.3
CC(=O)[C@@]12O[C@@H]1C[C@H]1[C@@H]3CC[C@H]4C[C@@H](O)CC[C@]4(C)[C@H]3CC[C@@]12C	x	8	-4	3415	-8	-1	3.9
c1csc(-c2nc3ccccn3c2NC2CCCCC2)c1	-15	-3	1	3651	-12	-7	0.8
O=C(NCc1ccco1)C1(c2ccc(Cl)cc2)CCCC1	-10	8	x	11510	8	9	4.8
Cn1c(=O)c2c(nc(SCC(=O)O)n2Cc2cc3c(cc2Cl)OCO3)n(C)c1=O	4	13	1	15976	2	3	5.1
Cc1cc(NC(=O)CSc2nc3c(c(=O)n2CCc2ccccc2)SC(C)C3)no1 (stereo not given)	-40	-5	-5	5729	-3	4	-15
CCOc1ccc2[nH]c3c(NCCC(C)C)ncnc3c2c1	-28	-16	2	4774	-5	8	-1.6
COc1ccc(NC(=O)CSc2nnc(CNC(=O)c3ccco3)o2)c(OC)c1	-16	0	4	3606	12	1	-0.5
COc1ccccc1/C=C1\CCC(C2CCCC2)C1=O (stereo not given)	-25	34	1	3936	21	17	4.0
Cc1ccc(N(CC(=O)NC2CCCCC2)C(=O)CCCC(=O)Nc2ccccn2)c(C)c1	1	6	1	3703	2	7	2.6
CCc1ccccc1Cn1c(=O)oc2cccnc21	-28	7	-1	3986	19	1	2.7
CCCc1cc(=O)oc2c(CNc3ccc(OCC)cc3)c(O)ccc12	-11	14	8	4127	1	-3	5.4
CCn1c(SCC(=O)NCCOC)nc2sc3c(c2c1=O)CCCC3	-13	7	6	12716	11	8	7.4
COc1cc(OC)cc(C(=O)Nc2nc3ccc(S(C)(=O)=O)cc3s2)c1	-27	4	11	2250	-5	4	0.9
